High-throughput results (PubChem BioAssay)
TRPML1 ag: qHTS for Agonists of the Human Mucolipin Transient Receptor Potential 1 (TRPML1). Mucolipin-1 (Homo sapiens), Q9GZU1. TRPML1-expressing cells, Ca2+ dye fluorescence, FDSS; host cell line not named in the record; reference of the full effect not given here. activation, % (concentration not given with the values). actives 0.12% (n = 410,000). AID 624414, 2012; in the data active = activation above about 50%; inconclusive = about 30% to 50%; inactive = below about 30%; further: 0% is about no effect; the text of the record puts the active cut at 80%
Target sequence (Q9GZU1 whole entry, looked up): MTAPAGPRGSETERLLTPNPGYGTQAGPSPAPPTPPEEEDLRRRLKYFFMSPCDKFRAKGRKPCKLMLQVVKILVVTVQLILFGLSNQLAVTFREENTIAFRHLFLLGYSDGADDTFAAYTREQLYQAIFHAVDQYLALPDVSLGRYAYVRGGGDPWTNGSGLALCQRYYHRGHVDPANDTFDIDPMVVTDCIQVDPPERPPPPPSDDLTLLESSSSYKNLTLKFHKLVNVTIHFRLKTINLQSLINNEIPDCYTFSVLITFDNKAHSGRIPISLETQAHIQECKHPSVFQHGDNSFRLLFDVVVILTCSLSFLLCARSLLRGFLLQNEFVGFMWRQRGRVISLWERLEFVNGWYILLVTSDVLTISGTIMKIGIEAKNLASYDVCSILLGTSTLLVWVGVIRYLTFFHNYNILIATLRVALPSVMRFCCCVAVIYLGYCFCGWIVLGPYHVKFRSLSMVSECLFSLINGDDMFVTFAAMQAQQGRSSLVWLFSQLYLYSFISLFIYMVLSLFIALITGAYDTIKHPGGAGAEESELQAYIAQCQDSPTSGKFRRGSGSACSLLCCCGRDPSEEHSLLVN
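Calcium fluorescence on an FDSS kinetic reader gave the read-out. Tet-induced TRPML1-DL cells were plated overnight, dye-loaded (Ca8 with quencher, 45-90 min, room temperature, dark), then read 110 s after compound addition, and again 110 s after 4uM final 54-4 (EC80).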
CtBP-E1A inh: qHTS Assay for Inhibitors of the CtBP/E1A Interaction | AlphaScreen GST-E1A/His-CtBP binding, 1536-well; hits give low values; control for the full effect not named in the record | CtBP / adenovirus E1A interaction (AlphaScreen) | activity change, % (no concentration beside the values) | actives 0.49% (n = 340,000); in the data active means activity change below about -65%; inconclusive means about -30% to -65%; inactive means above about -30%; further: on the % scale 0 is the no-effect control and ±100 the full control effect; compound concentration not given in the record
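Protein mix (5X: 125 nM each GST-E1A, His-CtBP) was incubated with pinned compound 2 h at 37 deg C in dark, in 50 mM Tris pH 8.0 buffer with 300 mM NaCl. Glutathione donor and nickel acceptor beads followed; AlphaScreen signal read after 1 h.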
D2 agonist: Beta-Arrestin HTS for Positive Allosteric Modulators of the Human D2 Dopamine Receptor: Agonists; DiscoveRx PathHunter D2 beta-arrestin, luminescence, 90 min; 100% = 57 uM dopamine signal; AID 624465, 2012; actives 0.084% (n = 360,000); D(2) dopamine receptor (Homo sapiens), P14416; activation, % (no concentration beside the values); in the data active = activation above about 40%; inconclusive = about 15% to 40%; inactive = below about 15%; further: compound concentration not given in the record; the text of the record calls up to 30% inactive
Target sequence (P14416 whole entry, looked up): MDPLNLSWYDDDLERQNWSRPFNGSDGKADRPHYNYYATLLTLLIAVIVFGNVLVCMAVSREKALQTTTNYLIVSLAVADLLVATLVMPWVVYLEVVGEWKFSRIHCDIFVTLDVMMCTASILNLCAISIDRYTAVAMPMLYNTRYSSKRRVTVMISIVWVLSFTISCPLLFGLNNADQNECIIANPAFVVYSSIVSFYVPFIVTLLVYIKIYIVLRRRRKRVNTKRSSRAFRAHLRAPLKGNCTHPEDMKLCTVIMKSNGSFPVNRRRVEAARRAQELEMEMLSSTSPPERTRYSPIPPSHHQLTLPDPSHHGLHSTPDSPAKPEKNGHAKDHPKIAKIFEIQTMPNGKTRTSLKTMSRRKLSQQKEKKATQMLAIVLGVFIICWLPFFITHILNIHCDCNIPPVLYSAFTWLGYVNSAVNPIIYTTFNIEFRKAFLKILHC
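Agonist mode: compounds alone added to overnight-plated D2 PathHunter cells for 90 min at 37 C, with 57 uM final dopamine (EC100) defining full response. Beta-arrestin recruitment detected by chemiluminescent reagent, read after 1 h at ambient temperature.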
PINK1 modulator: A Quantitative High throughput Screen to Identify Chemical Modulators of PINK1 Expression; AID 624263, 2012; actives 0.2% (n = 410,000); Potency, µM (series often up to 76.6 µM), for the others: at the highest dose activation (PINK1 increase), hits mostly activators; PINK1 immunofluorescence, high-content cytometry, 24 h; active = well fitted activation curve with a large enough effect; inconclusive = small, poorly fitted or top-dose-only effect; inactive = flat fitted curve, though single readings scatter; cell line not stated here;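 further: potency means the concentration at half of the fitted maximal effect; % of control where 0% means no effect; nearly all actives have a fitted effect of over 65% in size; a mitochondrial uncoupler was the plate control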
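Decision-based qHTS: stable cells, 24 h exposure to five compound concentrations, CCCP as control. Fixed cells stained for PINK1 plus nuclear, mitochondrial and cell markers, cytometer read.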
Six1-Eya2 blk: qHTS Assay for Inhibitors of the Six1/Eya2 Interaction | actives 0.56% (n = 360,000) | AlphaScreen GST-Six1/His-Eya2 binding, biochemical; hits give low values; control for the full effect not named in the record | Homeobox protein SIX1 (Homo sapiens) + Protein phosphatase EYA2 (Homo sapiens), … | activity change, % (concentration not given with the values); in the data active = activity change below about -65%; inconclusive = about -30% to -65%; inactive = above about -30%; further: on the % scale 0 is the no-effect control and ±100 the full control effect
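AlphaScreen luminescence read after one hour at 37 °C in darkness. Pin-transferred compounds met GST-Six1 and His-Eya2 protein (5X stock 250 nM/500 nM) plus glutathione donor and Ni-chelate acceptor beads (5X, 50 ug/mL).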
D2 PAM: Beta-Arrestin HTS for Positive Allosteric Modulators of the Human D2 Dopamine Receptor: Potentiators; D(2) dopamine receptor (Homo sapiens), P14416; DiscoveRx D2 beta-arrestin cells, luminescence, 90 min; 100% = 57 uM dopamine signal; potentiation, % (concentration not given with the values); actives 0.23% (n = 360,000); AID 624464, 2012; active = potentiation of 50% or more; inconclusive = 30% to 50%; inactive = 30% or less;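 further: compound concentration not given in the record; tested on top of an EC20 dose of dopamine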
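D2 cells co-treated with compound plus 50 nM dopamine (EC20) for 90 min at 37 deg C to detect potentiation. Beta-arrestin recruitment was read as enzyme-fragment luminescence after 1 h at ambient temperature. Full response was set by 57 uM dopamine.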
Starred values were filed as active, the others as inactive; ? = inconclusive; / = no result given; [ ] = another dose, or the depositor's remark.

SMILES	TRPML1 ag	CtBP-E1A inh	D2 agonist	PINK1 modulator	Six1-Eya2 blk	D2 PAM
CCCn1nnc(NC(=O)c2ccccc2Br)n1	0.9	7	-0.6	/	5	8
CCCC(NC(=O)CCc1c(C)c2cc3c4c(oc3c(C)c2oc1=O)CCCC4)C(=O)O (configuration not stated)	1.5	?	7.6	3.3%	-28	3
Cn1cnnc1SCC(=O)NN1C(=O)NC(C)(c2ccccc2)C1=O (configuration not stated)	0.5	3	-1.8	-0.8%	-1	-8
c1ccc(Cn2nnnc2C(c2cccs2)N2CCc3ccccc3C2)cc1 (configuration not stated)	0.4	-13	-1.4	3.8%[38.3 µM]	-1	-14
OC(COc1ccccc1)CN1CCN(Cc2ccc3c(c2)OCO3)CC1 (configuration not stated)	0.0	3	1.0	0.5%	5	-7
CCS(=O)(=O)N1Cc2ccccc2CC1C(=O)Nc1ccc(F)c(F)c1 (configuration not stated)	-0.5	4	4.9	0.2%	3	-11
O=C(c1ccccc1)N1CCN(c2ncccn2)CC1	-0.9	/	-1.5	0.4%	-1	-11
CN(CCCn1c(=S)[nH]c2ncccc2c1=O)Cc1ccccc1	-0.1	5	0.4	0.8%	4	-12
CCOc1ccc(S(=O)(=O)N(C)C)cc1-c1nc2c(C(C)(C)C)nn(C)c2c(=O)[nH]1	-0.3	14	-0.2	/	4	4
CCCn1c(N)c(N2CCCCC2)c(=O)n(CC(=O)Nc2ccccc2C(F)(F)F)c1=O	-0.4	2	-2.1	2.0%	2	-6
CCCn1nnnc1NCc1cccc(Cl)c1	0.8	-4	-1.5	0.7%	3	1
CCCOCC(O)CC(CC)C(=O)NNC(=S)Nc1ccccc1 (configuration not stated)	-0.1	?	-0.2	-2.4%	10	3
COc1cc(-c2ccc3oc(-c4cccc(C)c4)c(C#CC4(O)CCCCC4)c3c2)cc(OC)c1OC	-0.5	0	-1.5	4.7%	-2	-8
CN1CCN(C(=O)/C(=C\c2ccccc2)c2ccccc2)CC1	1.7	-6	-0.7	-1.1%	0	-13
O=C(Nc1ccccc1-c1nnn(CC(=O)N2CCCc3ccccc32)n1)c1ccco1	1.4	-9	1.9	-4.2%[38.3 µM]	-8	-10
COCC(C)N1CCC(Oc2ccc(C(=O)N3CCCC3)cc2)CC1 (configuration not stated)	0.0	4	-0.4	2.0%	1	-11
CC1(C)S/C(=N/N=C/c2ccco2)NC1=O	-0.3	0	-2.9	0.0%	3	-2
COc1cc(-c2cc(C(=O)Nc3ccc(S(N)(=O)=O)cc3)c3ccccc3n2)cc(OC)c1OC	-0.2	2	4.5	?	-3	9
COc1ccc2c(c1)c[n+](C)c1c3cc(OC)c(OC)cc3ccc21	-0.4	10	/	-0.3%	1	/
COC(=O)[C@@]1(Cc2ccccc2)[C@H]2C(=O)N(Cc3ccccc3)C(=O)[C@H]2[C@H]2CN=C(SC)N21	-0.5	1	1.4	-0.3%	-10	/
CSc1oc(-c2ccccc2)nc1S(=O)(=O)c1ccc(C)cc1	1.1	35	-3.9	1.8%	22	-3
Cc1ccc(-n2nnnc2-c2ccccc2)cc1	-1.3	12	-5.2	2.1%	3	-11
C=CCn1c(SCC(=O)Nc2sccc2C(N)=O)nc2sc(C)c(C)c2c1=O	1.2	0	2.1	?	10	-30
CN(C)c1ccc(N2CC(C)(C)C2=O)cc1	-0.3	-8	-1.3	-0.3%	-21	3
O=C(O)c1cc(-c2ccccc2)c(N2CCOCC2)s1	-0.7	27	-5.7	-2.4%	13	-15
Cc1nn(CC(=O)NCCCN2C(C)CCCC2C)c(=O)c2cc3occc3n12 (configuration not stated)	-0.7	7	-4.4	-0.2%	0	-18
Cc1ccc(NC(=S)N(CCN(C)C)C(C)c2ccco2)cc1Cl (configuration not stated)	8.7	/	-3.7	4.1%	-15	-22
CCn1c(=O)n(CCOC)c(=O)c2c3c(sc21)CCCC3	-0.6	-3	-1.4	0.0%	-6	-11
CCCCc1ccc(NC(=O)C(=O)NCCN2CCN(Cc3ccc([N+](=O)[O-])cc3)CC2)cc1	-0.5	-10	-6.7	3.6%	-12	-1
Cc1cc(C(=O)N2CCN(c3ncccc3C#N)CC2)no1	-0.5	4	-2.6	1.3%	-10	-4
CC[C@]12c3[nH]c4cc(-c5ccco5)ccc4c3CCN1C(=O)[C@@H](CC(=O)NCCCOC)C[C@@H]2C(=O)N1CCN(C(=O)c2ccco2)CC1	-0.6	-3	-3.1	0.3%	-9	-6
Cc1ccc(-c2nn(CC(=O)Nc3ccc4c(c3)nc3n4CCOC3)c(=O)c3ccccc23)cc1	0.3	1	-2.9	8.5%	-2	-16
O=C(NCc1ccc2c(c1)OCO2)C1CC(c2ccc(Cl)cc2)=NO1 (configuration not stated)	-0.7	9	-1.8	0.6%	1	7
O=C(CSc1n[nH]c(-c2ccc(S(=O)(=O)NC3CCCCC3)cc2)n1)N1CCCC1	0.3	8	4.4	/	4	-4
COc1ccc(CNC(=O)CSc2ncnc3nc[nH]c23)cc1	0.3	6	-1.8	-2.8%	2	9
O=C(Nc1ncccn1)c1cccc(Cl)c1	-0.5	/	-3.0	-0.6%	0	-17
CCOc1ccc2c(c1)nc(SCC(=O)c1ccc(Br)s1)n2C	3.9	-12	-2.4	-0.8%[38.3 µM]	-1	-18
CCC(=O)N1CCc2cc(S(=O)(=O)N3CCN(c4ccccc4)CC3)ccc21	1.2	/	4.2	3.6%	5	-2
O=C(NC(=S)N1CCN(c2ccc(C(F)(F)F)cc2[N+](=O)[O-])CC1)c1cccs1	-1.2	-14	-13	15%	-21	-20
Brc1ccccc1C1Nc2cccc3cccc(c23)N1	0.1	-6	15	6.2%	-6	7
CCS(=O)(=O)c1ccc(O)c(NC(=O)NC2CCCCC2)c1	0.8	11	-2.2	-0.4%	4	-4
Cn1cnnc1Sc1ccc(C(=O)NCCC(c2ccccc2)c2ccccc2)cc1[N+](=O)[O-]	0.7	/	8.8	0.8%	0	-3
CCN(CC)P(=O)(Nc1ccccc1Br)c1ccc(N(C)C)cc1NC(=O)c1ccco1 (configuration not stated)	2.9	?	-5.6	14%	-19	-2
Cc1cccc(-c2ccc3c(c2)C2CC3CCN2C)c1 (configuration not stated)	0.7	-5	-0.3	0.2%	-1	-11
CCC(C)NS(=O)(=O)c1ccc(NC(=O)C(Sc2ccccc2)c2ccccc2)cc1 (configuration not stated)	0.9	2	1.3	?	0	-3
CCCCCC(=O)N1C[C@H](O)[C@@H](n2cc(-c3ccc(F)cc3)nn2)C[C@@H]1c1ccc(OC)cc1	0.6	6	-7.0	2.6%	5	-4
Cc1ccc(-n2nc3ccc(NC(=O)c4ccco4)cc3n2)cc1	-0.2	2	-2.3	2.4%	-2	-19
Cc1ccc(SCCOCCN2CCOCC2)cc1	-0.1	0	-3.3	0.0%	0	-15
O=C(Nc1ccc2c(c1)OCCO2)C1c2ccccc2OCC(=O)N1C1CC1 (configuration not stated)	-0.4	8	/	1.8%	3	/
O=C(O)CSc1nc2ccc(Cl)cc2[nH]1	0.0	-1	-0.7	-3.7%	-6	-14
N#CCCN(C(=O)COC(=O)CCNS(=O)(=O)c1ccccc1)c1ccccc1	0.3	-16	-1.8	-0.4%	1	-2
O=C(NCC(=O)N(c1cccc(F)c1)C(C(=O)NCC1CCCO1)c1ccccc1)c1ccco1 (configuration not stated)	-0.2	4	-1.6	-2.0%	-1	-2
O=C(NCC(O)c1ccc([N+](=O)[O-])cc1)C1=COCCO1 (configuration not stated)	-0.2	-1	-0.6	0.4%	6	-11
Cc1nn(-c2ccccc2)nc1CNS(C)(=O)=O	-0.4	5	-1.9	0.5%	1	-1
CCOc1ccccc1N1CCN(C(=O)c2cc(-c3cccnc3)nc3c(Cl)cccc23)CC1	2.2	-10	-1.3	12%	-2	-13
CCN(CC)CCCN=Cc1c(O)n(Cc2ccccc2)c(=O)c2ccccc12	0.3	-16	0.4	22%	-18	-28
CC(C)Cc1nnc(NC(=O)C2CCN(C(=O)c3ccc(F)cc3)CC2)s1	0.5	2	1.7	3.3%	1	9
O=C(Cc1ccon1)c1ccc(O)cc1O	-0.5	5	-2.6	-1.2%	5	2
O=C1c2ccccc2C(=O)N1CCCc1nc(-c2ccccn2)no1	-0.6	4	-2.6	-0.8%	-2	-3
COc1cc(NC(=O)CSc2nccc(=O)[nH]2)c(C)cc1[N+](=O)[O-]	1.0	15	5.2	-1.1%	-2	-7

Of the compounds above, these have a CF3 group:
SMILES	TRPML1 ag	CtBP-E1A inh	D2 agonist	PINK1 modulator	Six1-Eya2 blk	D2 PAM
CCCn1c(N)c(N2CCCCC2)c(=O)n(CC(=O)Nc2ccccc2C(F)(F)F)c1=O	-0.4	2	-2.1	2.0%	2	-6
O=C(NC(=S)N1CCN(c2ccc(C(F)(F)F)cc2[N+](=O)[O-])CC1)c1cccs1	-1.2	-14	-13	15%	-21	-20

Part of the list above, field by field:
Structure: Cn1cnnc1Sc1ccc(C(=O)NCCC(c2ccccc2)c2ccccc2)cc1[N+](=O)[O-]
- TRPML1 ag: 0.7
- CtBP-E1A inh: /
- D2 agonist: 8.8
- PINK1 modulator: 0.8%
- Six1-Eya2 blk: 0
- D2 PAM: -3

Structure: CCN(CC)P(=O)(Nc1ccccc1Br)c1ccc(N(C)C)cc1NC(=O)c1ccco1 (configuration not stated)
- TRPML1 ag: 2.9
- CtBP-E1A inh: ?
- D2 agonist: -5.6
- PINK1 modulator: 14%
- Six1-Eya2 blk: -19
- D2 PAM: -2

Structure: Cc1cccc(-c2ccc3c(c2)C2CC3CCN2C)c1 (configuration not stated)
- TRPML1 ag: 0.7
- CtBP-E1A inh: -5
- D2 agonist: -0.3
- PINK1 modulator: 0.2%
- Six1-Eya2 blk: -1
- D2 PAM: -11

Next results follow.
SMILES	TRPML1 ag	CtBP-E1A inh	D2 agonist	PINK1 modulator	Six1-Eya2 blk	D2 PAM
Cn1c(N)c(C(c2ccccc2)c2c(N)n(C)c(=O)n(C)c2=O)c(=O)n(C)c1=O	0.2	10	-2.6	-1.8%	-2	-21
CC(C(=O)Nc1ccc(S(=O)(=O)N2CCOCC2)cc1)N1CCN(c2ccccn2)CC1 (configuration not stated)	2.1	-3	14	0.3%	5	6
O=C1c2ccc(Cl)cc2S(=O)(=O)c2cccc(C(=O)N3CCC(Cc4ccccc4)CC3)c21	0.8	-10	8.4	-0.9%	-22	?
CCOc1ccc(NC(=O)CNS(=O)(=O)c2c(C)cc(C)cc2C)cc1	1.3	-5	1.8	2.9%	-2	6
COc1ccc(-c2noc3c2-c2nc(-c4ccccc4C)sc2CC3)cc1	-0.7	5	-0.8	9.5%	-2	-8
O=C(N1CCOCC1)N1c2ccccc2Sc2ccccc21	1.4	-7	0.2	-2.2%[38.3 µM]	-2	-12
